GALR2 agonist – activates the human galanin receptor 2; 140,000 tested, 0.48% active; AID 803; activation, %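 (tested at 5 µM)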; O43603; GALR2-expressing cells, agonist activation read-out;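 active means above mean plus 3 SD of all compounds, about 5% in these data, not always enough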;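 further: 0% = vehicle buffer wells and 100% = reference agonist at full effect; tested in CHO reporter cells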
HSV augment – increases HSV replication in cells; maximum fold increase; 220,000 tested, 0.005% active; AID 1956; HSV replication augmentation in cells, fold increase;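 active means peak rise of 1.5-fold or more in the series; inconclusive means self-fluorescent or not available for retest; tested in PC3 cells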;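 further: first round at 10 µM; read as green reporter fluorescence; hits show the peak of a series up to 25 µM; 1 = signal of infected wells without compound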
PKD1 inh – blocks activity of human protein kinase D1 | Q15139 | PKD1 kinase fluorescence polarization assay | AID 797 | 200,000 tested, 0.056% active | inhibition, %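 (about 10 µM by stock and volumes)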;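 active means inhibition of 50% or more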;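 further: controls were vehicle for no effect and a reference inhibitor for full effect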
Target sequence (Q15139 whole entry, looked up): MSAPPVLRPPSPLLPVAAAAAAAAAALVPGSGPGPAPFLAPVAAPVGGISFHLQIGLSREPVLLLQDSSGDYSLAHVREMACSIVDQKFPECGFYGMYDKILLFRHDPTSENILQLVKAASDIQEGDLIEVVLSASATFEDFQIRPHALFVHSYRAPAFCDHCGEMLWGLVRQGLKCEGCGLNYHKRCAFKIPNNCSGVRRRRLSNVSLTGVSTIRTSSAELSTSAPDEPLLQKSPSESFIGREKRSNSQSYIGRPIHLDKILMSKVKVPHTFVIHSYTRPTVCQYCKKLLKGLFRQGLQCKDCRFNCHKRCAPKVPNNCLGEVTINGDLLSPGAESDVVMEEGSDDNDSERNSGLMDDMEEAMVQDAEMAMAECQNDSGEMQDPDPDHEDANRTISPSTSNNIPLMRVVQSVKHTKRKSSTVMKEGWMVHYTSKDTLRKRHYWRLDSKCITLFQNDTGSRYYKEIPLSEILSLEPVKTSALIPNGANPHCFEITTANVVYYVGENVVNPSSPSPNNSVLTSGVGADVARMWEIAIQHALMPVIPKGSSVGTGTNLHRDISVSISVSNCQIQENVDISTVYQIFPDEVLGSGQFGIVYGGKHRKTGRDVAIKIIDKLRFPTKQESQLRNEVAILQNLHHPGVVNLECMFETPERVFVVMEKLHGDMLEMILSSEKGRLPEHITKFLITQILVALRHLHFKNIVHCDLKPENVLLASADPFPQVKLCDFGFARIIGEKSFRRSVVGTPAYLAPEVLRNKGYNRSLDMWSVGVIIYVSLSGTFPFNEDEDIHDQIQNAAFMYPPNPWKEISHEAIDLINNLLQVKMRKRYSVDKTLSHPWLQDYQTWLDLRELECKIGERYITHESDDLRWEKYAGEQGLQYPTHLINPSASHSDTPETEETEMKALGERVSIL
RGS16-Gao HTS – RGS16-Galphao interaction regulator (human); AID 1441; O15492+P09471; 220,000 tested, 0.38% active; binding response (% of control), % at 10 µM; bead-based flow cytometry RGS16-Galphao binding, fluorescence; actives lie on both sides;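 active means below 25% or above 175%, edge rows of some plates excepted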;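 further: Galphao activated by GDP with aluminum fluoride before binding; 100% = wells without compound and 0% = beads without RGS; some results beyond the cut were filed as inactive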
Insulin prom inh – TRM-6 insulin promoter activity inhibition | TRM-6 cells (human fetal islet line), insulin promoter-eGFP reporter, imaging; reporter expression induced with tamoxifen | inhibition, % at 2 µM | 130,000 tested, 0.9% active | AID 1273;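 active means inhibition above the mean plus 3 SD, with well images judged a real hit on visual review, cut at about 60% in these data, passing the limit was not always enough; inconclusive means inhibition over the cutoff but images rejected on review; inactive means inhibition not above the cutoff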
Insulin prom inh cell count – second read-out of Insulin prom inh, no call of its own (marks repeat the call); normalized cell count, %; measured here: cell count, toxicity; reference of the scale not given here;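 cells exposed to compound for 48 h; stained nuclei by imaging scaled within each plate; lower means fewer cells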
HSV augment primary fold – also measured in HSV augment; calls as there; fold increase; compound at 10 µM; measured here: primary screen fold increase 10 uM; tested in PC3 cells;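 GFP signal in the first replicate; 1 = infected wells without compound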
Active calls of the source: *; i = inactive; ? = inconclusive; . = no result given.

SMILES	GALR2 agonist	HSV augment	HSV augment primary fold	PKD1 inh	RGS16-Gao HTS	Insulin prom inh	Insulin prom inh cell count
CC(=O)OC(C(=O)NC1CCCCC1)c1ccc(C#N)cc1 (centres undefined)	-1.6	i	0.94	-12	102	-14	55
CCOC(=O)c1cc2c(ccn2C)n1CC(=O)N(Cc1ccccc1)c1ccc(F)cc1	-1.2	i	0.99	8	101	-27	111
COCCn1c(SC)nnc1-c1c[nH]c2ccccc12	-3.3	i	0.96	0	115	.	.
CCCn1nnnc1SCC(=O)N1CCCC1	0.6	i	0.88	-2	100	-3	103
O=C(Nc1cccc(C(=O)O)c1)/C(=C\C=C\c1ccccc1)NC(=O)c1ccccc1	.	i	1.2	-3	96	49	81
O=C(Cn1cnc([N+](=O)[O-])c1)NC1CCCC1	-0.6	i	0.96	-5	106	57	101
Cc1ccc(/C=C2\SC(=S)N(CCCC(=O)Nc3ccc(O)cc3)C2=O)cc1	.	i	0.65	.	101	.	.
Cc1ccc(S(=O)(=O)N2CCN=C2c2ccccc2)cc1C	-1.8	i	0.87	4	35	-28	138
Cn1c(=O)c2nc(-c3ccc(Cl)cc3Cl)oc2c2ccccc21	-0.2	i	0.81	-2	98	.	.
CCOc1cc2[nH]c(=O)n(CCCC(=O)NCc3ccco3)c(=O)c2cc1OCC	-0.5	i	0.93	15	103	.	.
CC1(C)Cc2c(sc(NC(=O)c3ccccc3)c2C(=O)O)CO1	.	i	1.1	3	100	.	.
CC1=CC(C)(C)N(C(=O)CSc2ncn[nH]2)c2ccc(C)cc21	-0.8	i	0.86	-3	99	-9	100
CNC(=S)N/N=C/c1c(C)nn(-c2ccccc2)c1Cl	-1.6	i	1.1	-2	94	6	69
CCOc1cc(NC(=O)c2ccccn2)c(OCC)cc1NC(=O)c1cccc(C)c1	.	i	0.92	-2	110	.	.
Cc1ccccc1C1C(C#N)=C2N=C(N)c3ccccc3N2C2=C1C(=O)CCC2 (centres undefined)	.	i	0.93	.	99	.	.
S=c1[nH]nc(-c2ccc(Cl)cc2)n1CC1CCCO1 (centres undefined)	-1.1	i	0.76	-2	104	25	96
CC1(C)N=C(N)NC(Nc2ccccc2Cl)=N1	.	i	0.91	-4	109	25	165
COc1ccc(OCC(=O)Nc2cccc(NC(=O)COc3ccc(OC)cc3)n2)cc1	-2.0	i	0.9	3	97	-50	86
CCN(C(=O)COc1ccccc1[N+](=O)[O-])C1CCS(=O)(=O)C1 (centres undefined)	-2.3	i	0.97	5	109	-8	79
Cc1nc(C)c(C(=O)Nc2ccc(Oc3ccccc3)cc2)o1	-0.6	i	1.1	-7	102	-38	105
Cc1ccc(C(=O)Nc2nc(=O)n(C(=O)c3ccccc3C)s2)cc1	-0.1	i	0.89	3	103	-26	62
COc1ccccc1C(=O)O/N=C(\c1ccccc1)c1ccncc1	.	i	1.1	-8	98	29	100
Cc1ccc(-c2nn(CCC(=O)O)cc2/C=C\C(=O)c2ccc(Br)cc2)cc1	.	i	0.85	-7	109	28	133
O=C(Nc1ccc2c(c1)OCCO2)N1CCN(c2ccc(F)cc2)CC1	-2.1	i	0.72	1	97	-10	77
COc1ccc(C2CC(C(F)(F)F)n3nc(C(=O)O)c(Cl)c3N2)cc1OC (centres undefined)	-3.8	i	0.92	-4	61	-52	117

The list continues.
SMILES	GALR2 agonist	HSV augment	HSV augment primary fold	PKD1 inh	RGS16-Gao HTS	Insulin prom inh	Insulin prom inh cell count
CCOC(=O)c1cccc(NC(=O)CN(c2ccc(C)cc2)S(=O)(=O)c2c(C)noc2C)c1	-1.7	i	1	-1	100	.	.
COc1ccc(N2C(=O)CC(Sc3nnc(-c4ccccc4)o3)C2=O)cc1 (centres undefined)	-1.5	i	1.1	-1	92	11	91
OCCN(CCO)CC(O)COc1ccc2c(c1)OCO2 (centres undefined)	-2.0	i	0.96	-2	106	-24	133
Nc1nn(S(=O)(=O)c2ccccc2)cc1-c1ccc([N+](=O)[O-])cc1	-1.2	i	0.96	12	102	19	91
COc1cc(/C=N/NC(=S)Nc2cccc(Cl)c2C)ccc1OCC(=O)N1CC(C)OC(C)C1 (centres undefined)	-0.4	i	0.79	0	102	33	131
COc1cc(C)c(Cl)cc1S(=O)(=O)NCC1CCCO1 (centres undefined)	-2.2	i	0.91	-6	110	-492	35
O=C(CSc1nnc2ncccn12)N1CCCCCC1	-3.5	i	0.92	-8	103	-3	152
CN(C)c1ccc(NC(=O)c2ccc3nsnc3c2)cc1	-1.7	i	0.97	-2	101	14	76
O=C(NC1CCCC1)C(c1ccc(F)cc1)N(C(=O)Cc1cccs1)c1ccc2c(c1)OCCO2 (centres undefined)	-1.3	i	0.87	0	93	-30	105
CC(=O)c1cc(-c2ccccc2)n(CCC(=O)NC(C)(C)C)c1C	.	i	0.95	1	127	-8	36
CCNC(=O)Nc1nc2ccccc2s1	.	i	0.99	1	99	33	116
COc1cccc(N2CCN(C(=O)c3ccc(=O)oc3)CC2C)c1 (centres undefined)	-1.2	i	1	4	143	.	.
O=C(Nc1ccc(N2CCOCC2)cc1)Nc1ccc(Cl)c(Cl)c1	-1.3	i	0.84	-2	99	40	85
CCOCCCNC(=O)/C(C#N)=C/c1ccc(C)o1	.	i	0.98	-6	97	.	.
NS(=O)(=O)c1ccc(CCNC(=S)NC2CCCCC2)cc1	.	i	1.3	.	101	.	.
CC(NC(=O)c1noc2c1CCCCC2)c1ccccc1 (centres undefined)	-0.9	i	0.96	3	112	.	.
O=C1N(c2ccccc2)C(c2ccccc2)N2CCCN12 (centres undefined)	.	i	1.1	.	101	.	.
Nc1c(C(=O)NCC2CCCO2)sc(=S)n1-c1ccccc1 (centres undefined)	10	i	1	-6	98	6	143
C/C(=N\NC(=O)C1COc2ccccc2O1)c1ccccn1 (centres undefined)	-0.8	i	0.72	-9	106	.	.
Cc1ccc(NC(=O)COc2ccc(Br)cc2C)cc1	-0.3	i	1.1	4	110	32	127
COCCN1C(=O)N[C@@H](c2ccccc2)C(C(C)=O)=C1C	0.1	i	1.1	-10	102	-40	96
CCn1nc(C)cc1-c1n[nH]c(=S)n1N	-0.9	i	1	-2	46	7	129
CCCCC(=O)NC1=NC(=O)C(C)(C)S1	-0.6	i	1.2	4	89	13	54
CC1(C)CC2CC(C)(CN2C(=O)NC(=O)c2ccccc2)C1 (centres undefined)	-1.6	i	0.82	-7	98	.	.
COc1cccc2cc(/C(=N/O)c3ccccc3)oc12	.	i	0.83	6	109	-25	118

The list goes on:
SMILES	GALR2 agonist	HSV augment	HSV augment primary fold	PKD1 inh	RGS16-Gao HTS	Insulin prom inh	Insulin prom inh cell count
O=C1CNC(=O)/C1=C\N1CCCCC1	-2.2	i	0.9	-5	101	3	108
Cc1noc(C)c1COc1ccc(C(=O)OCC(=O)Nc2c(C)n(C)n(-c3ccccc3)c2=O)cc1	.	i	1	-4	78	.	.
O=C(NCc1ccncc1)C(=O)NCc1ccco1	.	i	0.9	-1	102	.	.
CCOC(=O)CC(=O)CSc1ncnc2c1nnn2-c1ccc(F)cc1	.	i	1.2	-8	111	-100	108
CCCCCCCC[n+]1cccc(C(=O)N2c3c(nc(N)[nH]c3=O)NC(C)C2C)c1 (centres undefined)	-1.3	i	0.83	-6	101	21	126
CCCn1c(SCC(=O)Nc2cc(S(=O)(=O)N3CCOCC3)ccc2OC)n[nH]c1=O	-1.2	i	1.1	-8	79	43	99
Cc1ccc(C)n1-c1nccc(-c2ccco2)n1	.	i	1	-6	99	.	.
COCc1cc(=O)[nH]c(/N=C(\N)Nc2ccc(Oc3ccccc3)cc2)n1	-1.8	i	0.76	-14	100	25	140
O=C(NNS(=O)(=O)c1cc(Cl)cc(Cl)c1)c1sccc1-n1cccc1	-0.9	i	1.1	1	98	21	126
COc1ccc(N=Nc2ccc(O)c3ncccc23)cc1	.	i	0.67	.	92	.	.
CC1CC1C(=O)OCC(=O)Nc1cccc([N+](=O)[O-])c1 (centres undefined)	.	i	1.1	-2	101	.	.
Cn1c(N)cc(=O)n(Cc2ccccc2)c1=O	-1.7	i	0.92	1	105	-5	124
COc1ccc(CCNC(=O)Cc2cc(OC)c(OC)cc2Br)cc1OC	.	i	0.95	-1	100	.	.
COc1ccc(CC2(C)OC(c3ccc(C)c([N+](=O)[O-])c3)=NN2C(C)=O)cc1 (centres undefined)	.	i	0.62	.	105	.	.
O=C(CSc1nc2ccccc2o1)Nc1ccc(Cl)cc1	-0.5	i	1.1	-6	83	10	167
CCOC(=O)c1ccccc1N1C(=O)C2Sc3[nH]c(=O)sc3C(/C=C/c3ccccc3)C2C1=O (centres undefined)	-0.1	?	.	-8	103	11	134
Cc1ccc(S(=O)(=O)N(C)CCCC(=O)Nc2ccncc2)cc1	-1.1	.	.	-27	100	.	.
O=C(N/N=C/c1cccs1)c1ccc(-n2cccc2)cc1	.	i	1	-4	96	.	.
O=S1(=O)N=C(N/N=C/c2ccco2)c2ccccc21	.	i	1.1	0	100	27	63
NS(=O)(=O)c1cccc(NC(=S)NC(=O)c2cccc([N+](=O)[O-])c2)c1	.	i	0.99	5	95	.	.
CCOCCCNCc1cc(Br)ccc1OCc1ccccc1	-1.2	i	0.82	2	100	-30	126
O=C(Cn1cc(C(=O)C2CCCCC2)c2ccccc21)NCC1CCCO1 (centres undefined)	.	i	0.94	-5	99	.	.
CC1CC(=O)C2=C(C1)Nc1ncnn1C2c1ccccc1 (centres undefined)	-1.3	i	0.71	4	101	0	133
CS(=O)(=O)Nc1ccccc1C(=O)NCc1ccccc1Cl	.	i	0.96	-6	100	.	.
Cc1cc(C(=O)Nc2c(F)cc(F)cc2Br)c(C)o1	-2.1	i	1.1	-10	114	.	.

Next section
SMILES	GALR2 agonist	HSV augment	HSV augment primary fold	PKD1 inh	RGS16-Gao HTS	Insulin prom inh	Insulin prom inh cell count
O=C(c1cccc(F)c1)N1CCN(c2ccc([N+](=O)[O-])c3cccnc23)CC1	.	i	0.95	-7	104	.	.
NC(=S)N/N=C/c1ccccc1OCc1cccc(Cl)c1	-3.3	i	0.89	7	99	.	.
Cc1ccc(NC(=S)N(Cc2cccs2)Cc2cc3cccc(C)c3[nH]c2=O)cc1	-0.9	i	0.99	2	80	-47	53
COC(=O)C1=C(C)NC(=O)CC1c1ccc(C(=O)OC)cc1 (centres undefined)	-2.2	i	0.92	-10	100	-36	88
Cc1ccc(-c2ccc(/C=N/NC(=O)CN3CCOCC3)o2)cc1[N+](=O)[O-]	.	i	1	-3	107	-23	83
O=C(O)c1cn(-c2ccc(F)c(F)c2)c2c(F)c(F)c(F)c(F)c2c1=O	-0.2	i	0.82	5	101	33	80
CC(C)Cn1c(N)c(C(=O)COC(=O)c2ccc(F)cc2)c(=O)n(C)c1=O	.	i	0.92	0	113	17	130
COc1cccc(-c2nc(-c3ccc(Br)o3)no2)c1	.	i	0.92	.	102	.	.
CNC(=O)CSc1nc2ccccc2c(=O)n1-c1cc(OC)ccc1OC	.	i	1.1	.	92	.	.
COc1cc(OC)c(OC)cc1/C=N/NC(=O)c1ccc(=O)n(C)c1	-0.3	i	1.1	0	102	-25	49
Cc1ccc(C2CC(c3ccccc3OC(F)F)Nc3ncnn32)cc1 (centres undefined)	-1.4	i	0.93	-9	111	4	188
Cc1cc(C(=O)N/N=C/c2cccs2)no1	0.3	i	0.98	0	89	-33	54
CCC(Oc1ccccc1)C(=O)N(Cc1ccccc1)c1ccccn1 (centres undefined)	-2.2	i	1.1	-16	100	-22	69

Results in RGS16-Gao HTS, for some of the entries so far:
smiles	RGS16-Gao HTS
Cc1ccc(NC(=S)N(Cc2cccs2)Cc2cc3cccc(C)c3[nH]c2=O)cc1	80
COC(=O)C1=C(C)NC(=O)CC1c1ccc(C(=O)OC)cc1 (centres undefined)	100
Cc1ccc(-c2ccc(/C=N/NC(=O)CN3CCOCC3)o2)cc1[N+](=O)[O-]	107

Looked up above:
In RGS16-Gao HTS, O=S1(=O)N=C(N/N=C/c2ccco2)c2ccccc21 is listed with 100
In HSV augment primary fold, Cn1c(=O)c2nc(-c3ccc(Cl)cc3Cl)oc2c2ccccc21 is listed with 0.81
In PKD1 inh, O=C1CNC(=O)/C1=C\N1CCCCC1 is listed with -5

Sorted by value in GALR2 agonist (falling): 3 of the compounds above.
compound,GALR2 agonist
CCOc1cc2[nH]c(=O)n(CCCC(=O)NCc3ccco3)c(=O)c2cc1OCC,-0.5
O=C(NNS(=O)(=O)c1cc(Cl)cc(Cl)c1)c1sccc1-n1cccc1,-0.9
CCCn1c(SCC(=O)Nc2cc(S(=O)(=O)N3CCOCC3)ccc2OC)n[nH]c1=O,-1.2

Screening results from PubChem BioAssay.
